# Screening results deposited in PubChem BioAssay by National Center for Advancing Translational Sciences (NCATS).
# 2A StopGo – FMDV 2A StopGo reporter, luciferase signal | human cells with a luciferase reporter of 2A StopGo recoding; control for the full effect not named in the record | Potency, µM (titrated, usually from 57.9 µM), without a hit: at the highest dose signal change, negative = less light | 410,000 tested, 1.2% active; active = well fitted falling curve with a large enough effect; inconclusive = small, poorly fitted or top-dose-only effect; inactive = no such curve, though single readings can be large or run the other way; tested in HEK293T cells; note: % is set by controls: 0 for no effect and ±100 for the full control effect; nearly all actives have a fitted effect of over 45% in size; luciferase light after 4 h
# SARS PLpro yeast – inhibitors of SARS-CoV papain-like protease in yeast; S. cerevisiae expressing SARS-CoV PLpro, growth rescue; control for the full effect not named in the record; Potency, µM (series often up to 32.9 µM), without a hit: at the top dose activity, positive = growth rescue; 330,000 tested, 0.19% active; AID 485353; active means well fitted rising curve with a large enough effect; inconclusive means small, poorly fitted or top-dose-only effect; inactive means no such curve, though single readings can be large or run the other way; note: 0% is about no effect; nearly all actives have a fitted effect of over 55% in size; growth read by luminescence after 48 h
# RE007 growth inh – less growth of the S. pombe RE007 Vpr strain. S. pombe RE007 Vpr strain, BacTiter-Glo ATP luminescence, 24 h; control for the full effect not named in the record. Potency, µM (titrated, usually from 92.2 µM), for inactives: at the highest dose activity change, negative = less growth. 360,000 tested, 0.21% active; active = well fitted falling curve with a large enough effect; inconclusive = small, poorly fitted or top-dose-only effect; inactive = no such curve, though single readings can be large or run the other way;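 note: % is set by controls: 0 for no effect and ±100 for the full control effect; nearly all actives have a fitted effect of over 50% in size; the assay follows cell death caused by Vpr and the record does not say whether a fall means rescue or toxicity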
#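 Fission yeast strain RE007, carrying one chromosomally integrated HIV-1 vpr copy, was seeded at OD 0.01 in PMG+AL medium with 23 nL pinned compound. After 24 h at 30 °C and 99% humidity, viability was read by BacTiter-Glo luminescence.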
# The depositor's hits bear a star; u = inconclusive; [ ] = another dose, or the depositor's remark. Potency is the fitted concentration of half-maximal effect.
Molecule	2A StopGo	SARS PLpro yeast	RE007 growth inh
COc1ccc(CN(C)C(=O)C2CC(=O)N(c3ccc4c(c3)OCCO4)C2)c(OC)c1 (stereo not given)	u	0.6%	4.9%
CCOC(=O)N1CCN(C(=O)/C(=C/c2ccc(Cl)cc2)NC(=O)c2ccccc2)CC1	53.0%[activator]	0.3%	2.2%
C=CCN1CN=C(NS(=O)(=O)c2ccc(NC(C)=O)cc2)NC1	3.6%	1.6%	12.3%
C#CCOCCOCCOCCNc1nc(N2CCN(C(=O)CCCCCCCCCCNC(=O)[C@@H](CCC(=O)O)n3cc(CCCCCN)nn3)CC2)nc(N2CCN(C(=O)CCCCCCCCCCNC(=O)[C@H](CO)n3cc(CCCCCN)nn3)CC2)n1	-2.9%	0.7%	0.7%
Cc1ccccc1NC(=O)Cc1nc(COC(=O)c2cccc(O)c2)cs1	-16.3%	1.0%	30.0%
C=CCC1C=C(Cc2ccccc2)CC(CC=C)N1 (stereo not given)	8.5%	6.4%	9.2%
COc1cccc(CN(C)C(=O)CN2C(=O)NC(c3ccccc3)(c3ccccc3)C2=O)c1	-14.4%	4.7%	-7.3%
CSCCC(NC(=O)c1ccccc1)C(=O)OCC(=O)NCc1ccco1 (stereo not given)	-6.5%	-5.7%	-16.1%
Cc1cccc(C(=O)NCC(=O)N(C)Cc2nc3ccccc3c(=O)[nH]2)c1	-13.3%	0.8%	-3.6%
COc1ccc(CCNC(=O)C(CC(C)C)NC(N)=O)cc1 (stereo not given)	-11.5%	-1.5%	0.9%

# Next part.
Molecule	2A StopGo	SARS PLpro yeast	RE007 growth inh
Cc1c(NC(=O)C(C)Sc2nc(N)cc(=O)[nH]2)c(=O)n(-c2ccccc2)n1C (stereo not given)	-15.4%	-8.5%	-7.3%
O=C(Nc1cccc(S(=O)(=O)N2CCOCC2)c1)c1ccc(Cl)nc1	u	4.1%	0.9%
Cc1cccc(N2CCN(C(=O)COc3ccc4c(c3)CCC4)CC2C)c1 (stereo not given)	-20.2%	-3.3%	0.0%
COC(=O)c1c(C)[nH]c(C(=O)CN2C(=O)NC3(CCOc4ccccc43)C2=O)c1C (stereo not given)	-1.2%	0.1%	0.8%
C=CCNc1nc(Nc2ccc([N+](=O)[O-])cc2)nc(OC)n1	0.0%	1.8%	-18.0%
Cc1cc(C(=O)CN2c3cccc4cccc(c34)S2(=O)=O)c(C)n1C	-7.4%	-1.2%	-11.3%
COC(=O)c1c(-c2ccccc2OC)sc2ccccc12	-18.4%	3.7%	-17.9%
COc1ccc(NC(=O)Nc2ccc3c(c2)C(=O)N([C@@H](C)CO)C[C@@H](C)[C@@H](CN(C)S(=O)(=O)c2cccs2)O3)cc1	4.3%	-46.0%	-8.9%
COc1ccc(SCCN2CC[C@@H](C)CCC2=O)cc1	53.9%[activator]	-4.0%	3.5%
CC(NCC(=O)Nc1ccccc1C(=O)NC1CC1)c1ccc(S(C)(=O)=O)cc1 (stereo not given)	-17.6%	2.2%	-10.8%

# (further entries)
Molecule	2A StopGo	SARS PLpro yeast	RE007 growth inh
COC(=O)[C@@]1(Cc2ccccc2)[C@H]2C(=O)N(C)C(=O)[C@H]2[C@H]2CN=C(SCc3ccc(C)cc3)N21	-21.4%	-0.4%	-11.1%
Cc1cccc(NC(=O)NNC(=O)c2ccccn2)c1	2.8%	-5.7%	-8.3%
Cc1ccc(NC(=O)CN(C)C(=O)c2cccc(S(=O)(=O)NCc3cccs3)c2)cc1	35.9%[activator]	2.7%	-7.8%
Cc1ccc2c(COC(=O)CNS(=O)(=O)c3ccccc3)cc(=O)oc2c1	-6.8%	-6.4%	-2.3%
Cc1ccc(NC(=O)CN2C(=O)NC(Cc3c[nH]c4ccccc34)C2=O)cc1 (stereo not given)	-8.9%	0.9%	1.9%
Cc1cc(C)c(C)c(S(=O)(=O)NC(C(=O)NCCc2ccco2)C(C)C)c1C (stereo not given)	6.9%	-10.5%	-0.4%
O=C1CCCN1CCCNS(=O)(=O)c1cccs1	-8.8%	-0.9%	0.2%
CC(OC(=O)CC1CC2CCC1C2)C(=O)Nc1ccc(C(N)=O)cc1 (stereo not given)	5.3%	1.2%	5.9%
CCCC1(c2ccccc2)NC(=O)N(CC(=O)Nc2ccc3c(c2)OCCO3)C1=O (stereo not given)	-11.4%	9.4%	-3.0%
C[C@H](CO)N1C[C@H](C)[C@@H](CN(C)S(=O)(=O)c2ccc(F)cc2)Oc2ccc(NC(=O)Nc3ccc(C(F)(F)F)cc3)cc2C1=O	u	-0.4%	9.3%

# Going on with the list:
Molecule	2A StopGo	SARS PLpro yeast	RE007 growth inh
CCC(=O)N(c1nnc(SCC(=O)NN2C(=O)NC3(CCC(C)CC3)C2=O)s1)C1CC1 (stereo not given)	6.9%	1.7%	-2.7%
Cc1cc(C)c(NC(=O)COC(=O)COc2ccc3c(C)cc(=O)oc3c2)c(Cl)c1	0.0%	1.9%	-11.2%
CCSc1cc(N2CCCC2)nc(-c2ccc(Cl)cc2)n1	-16.2%	7.2%	-14.8%
O=C(CN1CCN(c2ccccc2O)CC1)Nc1cc(S(=O)(=O)N2CCCC2)ccc1Cl	-21.5%	-5.7%	7.8%
CCN(CC(=O)NCc1cccs1)C(=O)COc1ccc(C(C)=O)cc1	-10.3%	3.5%	-0.4%
O=C(CN1C(=O)NC2(CCCCCC2)C1=O)NC1CCCCCCC1	7.9%	5.4%	9.4%
O=C(c1ccc(N2CCCCC2)c([N+](=O)[O-])c1)N1CCN(c2ccccn2)CC1	-4.8%	2.9%	-0.1%
C[C@@H]1COC(=O)[C@H](CC(=O)OC(C)(C)C)C/C=C\C[C@@H](CC(=O)N(CCO)Cc2ccccc2)C(=O)N1	11.0%	-2.1%	15.0%
C=CCNc1nc(S(=O)Cc2ccc(C)cc2)nc2c1CCCC2 (stereo not given)	-23.3%	0.9%	-5.2%
O=[N+]([O-])c1ccc(-c2c(-c3ccccc3)ncc3ccc(F)cc23)cc1	10.4%	-10.4%	-11.9%

# Next part
Molecule	2A StopGo	SARS PLpro yeast	RE007 growth inh
O=C(Nc1cnn(Cc2ccc(F)cc2)c1)c1noc2c1CCCC2	60.4%[activator]	-4.9%	2.7%
C[C@]12c3[nH]c4ccccc4c3CCN1C(=O)C(CC(=O)NCCN1CCOCC1)C[C@@H]2C(=O)N1CCOCC1 (stereo not given in full)	-15.4%	-1.4%	0.1%
Cc1ccc(C(=O)N(CC(=O)NC2CCCC2)c2ccc3c(c2)OCCO3)s1	-2.1%	7.8%	-5.1%
Cc1nn(C)c(C)c1NS(=O)(=O)c1ccccc1Cl	-26.2%	-3.7%	3.3%
CCCN(CCC)S(=O)(=O)c1ccc(C(=O)NCc2n[nH]c(=S)n2-c2ccc(Cl)c(Cl)c2)cc1	-1.5%	0.6%	6.7%
CCN(CC)C(=O)c1nc[nH]c1C(=O)N(C)Cc1ccccc1	-1.8%	-3.3%	-15.1%
CCN1C(=O)C(=O)N(CC(=O)c2cc(C)n(C3CC3)c2C)C1=O	30.1%[activator]	-3.5%	-21.6%
CCCn1c(N)c(C(=O)COC(=O)CNC(=O)c2ccc(C)c(C)c2)c(=O)n(C)c1=O	-5.5%	0.5%	2.1%
O=C(NCC1CCCO1)c1cccc2c1C(=O)c1ccc(N3CCC(Cc4ccccc4)CC3)cc1S2(=O)=O (stereo not given)	12.6µM*	3.6%	6.5%
C/C(=N\NC(=O)C(N)=O)c1cccc([N+](=O)[O-])c1	-9.7%	-1.2%	3.8%

# Going on with the list.
Molecule	2A StopGo	SARS PLpro yeast	RE007 growth inh
Cc1ccc(F)c(NC(=O)/C(C#N)=C(\O)c2ccc(C(C)(C)C)cc2)c1	18.5%	0.1%	11.1%
O=C(O)c1cn(-c2ccccc2)nc1-c1ccc(F)cc1	1.3%	-3.5%	19.7%
Cc1nc2ccccc2c2oc(C(=O)Nc3ccc(C(C)C)cc3)cc12	u	-6.2%	4.0%
COc1ccc2c(c1)OC[C@H]1[C@H]2N2C(=O)CN(Cc3ccc(Cl)cc3)C(=O)[C@@]2(C)[C@H]1c1ccccc1	-19.4%	-3.8%	-22.9%
COc1ccccc1S(=O)(=O)Nc1ccc(S(=O)(=O)Nc2nccs2)cc1	7.3%	-0.2%	5.8%
COc1cccc(NS(=O)(=O)c2ccc3c(c2)CC(=O)N3)c1	13.8%	-11.6%	-3.9%
COC(=O)[C@]1(CC(C)C)N[C@H](c2ccc(-c3ccc4c(c3)OCO4)cc2)[C@@H]2C(=O)N(C)C(=O)[C@@H]21	0.0%	1.7%	-1.0%
C=CCC[C@@H](Cc1ccc(F)cc1)C(=O)O[C@H](CNC(=O)[C@@H](CC=C)CC(=O)N[C@H](CO)Cc1ccccc1)c1ccccc1	-23.4%	6.3%	0.4%
COC(=O)C1=C(c2cccc3c2S(=O)(=O)c2ccccc2-3)C[C@@H]2CC[C@H]1N2C(=O)N1CCc2cc(OC)c(OC)cc2C1	-30.2%	1.1%	4.1%
Cc1cc(C(=O)N/N=C/C=C/c2cccc([N+](=O)[O-])c2)n[nH]1	-6.2%	-1.3%	-23.3%

# A draw from above in order of count of non-hydrogen atoms, low to high:
Molecule	2A StopGo	SARS PLpro yeast	RE007 growth inh
COc1ccc(SCCN2CC[C@@H](C)CCC2=O)cc1	53.9%[activator]	-4.0%	3.5%
C=CCNc1nc(Nc2ccc([N+](=O)[O-])cc2)nc(OC)n1	0.0%	1.8%	-18.0%
C=CCNc1nc(S(=O)Cc2ccc(C)cc2)nc2c1CCCC2 (stereo not given)	-23.3%	0.9%	-5.2%
O=C(Nc1cccc(S(=O)(=O)N2CCOCC2)c1)c1ccc(Cl)nc1	u	4.1%	0.9%
Cc1nc2ccccc2c2oc(C(=O)Nc3ccc(C(C)C)cc3)cc12	u	-6.2%	4.0%
Cc1cccc(C(=O)NCC(=O)N(C)Cc2nc3ccccc3c(=O)[nH]2)c1	-13.3%	0.8%	-3.6%
Cc1ccc(NC(=O)CN2C(=O)NC(Cc3c[nH]c4ccccc34)C2=O)cc1 (stereo not given)	-8.9%	0.9%	1.9%
CCCC1(c2ccccc2)NC(=O)N(CC(=O)Nc2ccc3c(c2)OCCO3)C1=O (stereo not given)	-11.4%	9.4%	-3.0%
COc1ccc(CN(C)C(=O)C2CC(=O)N(c3ccc4c(c3)OCCO4)C2)c(OC)c1 (stereo not given)	u	0.6%	4.9%
COc1ccc2c(c1)OC[C@H]1[C@H]2N2C(=O)CN(Cc3ccc(Cl)cc3)C(=O)[C@@]2(C)[C@H]1c1ccccc1	-19.4%	-3.8%	-22.9%
C[C@@H]1COC(=O)[C@H](CC(=O)OC(C)(C)C)C/C=C\C[C@@H](CC(=O)N(CCO)Cc2ccccc2)C(=O)N1	11.0%	-2.1%	15.0%
O=C(NCC1CCCO1)c1cccc2c1C(=O)c1ccc(N3CCC(Cc4ccccc4)CC3)cc1S2(=O)=O (stereo not given)	12.6µM*	3.6%	6.5%
C=CCC[C@@H](Cc1ccc(F)cc1)C(=O)O[C@H](CNC(=O)[C@@H](CC=C)CC(=O)N[C@H](CO)Cc1ccccc1)c1ccccc1	-23.4%	6.3%	0.4%

# (list continues)
Molecule	2A StopGo	SARS PLpro yeast	RE007 growth inh
Cc1ccc(C(=O)Nc2nnc(CC(=O)N/N=C/c3ccncc3)s2)cc1	74.1%[activator]	2.9%	8.1%
COC(=O)[C@]1(Cc2ccccc2)N[C@H](CN(C)C(=O)Nc2ccccc2)[C@@H]2C(=O)N(Cc3ccccc3)C(=O)[C@@H]21	-6.9%	-6.1%	-4.8%
O=C(C[C@@H]1C/C=C\C[C@@H](Cc2ccc(F)cc2)C(=O)OCCNC1=O)N[C@H](CO)Cc1ccccc1	u	-4.2%	-6.6%
Cc1ccccc1OCC(=O)OC(C)C(=O)NC1CCCC1 (stereo not given)	-14.2%	-0.9%	-1.9%
CS(=O)(=O)N1N=C(c2cccs2)CC1c1ccc(Cl)o1 (stereo not given)	71.5%[activator]	-1.7%	13.9%
COC(=O)C1=C(c2c(C)noc2C)C[C@@H]2CC[C@H]1N2C(=O)N1CCC(O)(c2ccc(Cl)cc2)CC1	-23.3%	2.4%	25.0%
COc1ccc(-c2cccc(-c3cc(=O)oc4cc(OC)cc(OC)c34)c2)cc1	-26.4%	10.7%	1.1%
Cn1cccc1C(=O)NC(=O)COC(=O)CCNS(=O)(=O)c1ccc(Cl)cc1	-19.9%	-1.0%	-12.3%
CCOC(=O)C(CN1CCCC1)c1ccccc1 (stereo not given)	-15.5%	-20.9%	-11.4%
COc1ccc(-n2c(C)nc3c(cnn3-c3ccc(C)cc3)c2=O)cc1	u	-10.1%	20.1%
COCCCn1cnnc1SC(C)C(=O)Nc1ccc(S(=O)(=O)N2CCOCC2)cc1 (stereo not given)	-6.3%	2.0%	-8.3%
CC1CCN(C(=O)COC(=O)c2n[nH]c(=O)c3ccccc23)CC1	0.7%	-1.6%	-3.4%

# The list is partial; count on the stated rates, not on these rows.
